Six1-Eya2 inh – qHTS Assay for Inhibitors of the Six1/Eya2 Interaction; Homeobox protein SIX1 (Homo sapiens) + Protein phosphatase EYA2 (Homo sapiens), …; AlphaScreen GST-Six1/His-Eya2 binding, biochemical; hits give low values; control for the full effect not named in the record; hit rate 0.56% among 360,000; AID 651725, 2012; activity change, % (test concentration not listed); in the data active = activity change below about -65%; inconclusive = about -30% to -65%; inactive = above about -30%; note: % is set by controls: 0 for no effect and ±100 for the full control effect; compound concentration not given in the record
Target sequence (O00167 whole entry, looked up): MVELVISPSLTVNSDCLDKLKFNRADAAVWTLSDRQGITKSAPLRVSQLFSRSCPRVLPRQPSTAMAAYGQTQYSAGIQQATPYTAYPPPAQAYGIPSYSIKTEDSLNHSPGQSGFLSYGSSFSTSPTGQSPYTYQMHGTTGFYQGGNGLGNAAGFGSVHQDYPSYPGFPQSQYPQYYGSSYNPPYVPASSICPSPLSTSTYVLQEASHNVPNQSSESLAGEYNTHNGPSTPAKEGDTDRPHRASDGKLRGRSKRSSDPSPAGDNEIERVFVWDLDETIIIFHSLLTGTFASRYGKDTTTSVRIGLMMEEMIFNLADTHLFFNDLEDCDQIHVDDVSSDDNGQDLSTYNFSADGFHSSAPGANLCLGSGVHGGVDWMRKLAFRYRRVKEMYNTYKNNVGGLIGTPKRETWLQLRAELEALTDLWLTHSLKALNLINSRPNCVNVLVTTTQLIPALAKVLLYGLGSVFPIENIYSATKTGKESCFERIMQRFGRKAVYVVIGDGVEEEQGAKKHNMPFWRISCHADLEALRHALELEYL
Target sequence (Q15475 whole entry, looked up): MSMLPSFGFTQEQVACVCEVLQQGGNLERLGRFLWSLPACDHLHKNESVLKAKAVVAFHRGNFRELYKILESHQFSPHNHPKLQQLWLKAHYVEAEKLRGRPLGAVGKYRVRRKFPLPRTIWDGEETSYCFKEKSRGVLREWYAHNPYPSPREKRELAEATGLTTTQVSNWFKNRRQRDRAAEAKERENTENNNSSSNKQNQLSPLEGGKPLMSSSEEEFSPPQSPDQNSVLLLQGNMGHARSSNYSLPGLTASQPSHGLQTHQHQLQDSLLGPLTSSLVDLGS
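AlphaScreen with GST-Six1 and His-Eya2 (5X mix: 250 nM and 500 nM), glutathione donor and nickel acceptor beads; buffer 50 mM Tris pH 8.0, 300 mM NaCl, 1 mM TCEP; 1 h at 37 C in the dark.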
CtBP-E1A blk – qHTS Assay for Inhibitors of the CtBP/E1A Interaction; AID 651724, 2012; hit rate 0.49% among 340,000; AlphaScreen GST-E1A/His-CtBP binding, 1536-well; hits give low values; control for the full effect not named in the record; activity change, % (concentration not given with the values); CtBP / adenovirus E1A interaction (AlphaScreen); in the data active means activity change below about -65%; inconclusive means about -30% to -65%; inactive means above about -30%; note: % is set by controls: 0 for no effect and ±100 for the full control effect
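Homogeneous bead-based format: GST-tagged E1A captured on glutathione donor beads, His-tagged CtBP on nickel acceptor beads; compounds precede bead addition by 2 h at 37 °C.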
TRPML1 ag – qHTS for Agonists of the Human Mucolipin Transient Receptor Potential 1 (TRPML1); AID 624414, 2012; activation, % (test concentration not listed); Mucolipin-1 (Homo sapiens), Q9GZU1; TRPML1-expressing cells, Ca2+ dye fluorescence, FDSS; host cell line not named in the record; reference of the full effect not given here; hit rate 0.12% among 410,000; in the data active = activation above about 50%; inconclusive = about 30% to 50%; inactive = below about 30%; note: 0% is about no effect; the text of the record puts the active cut at 80%
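Tetracycline-induced TRPML1-DL cells are seeded and incubated overnight before loading with a no-wash Ca2+ dye and quencher. Agonist activity is taken from the 110 s fluorescence read following compound pin-transfer on an FDSS, before EC80 54-4 challenge.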
D2 ag – Beta-Arrestin HTS for Positive Allosteric Modulators of the Human D2 Dopamine Receptor: Agonists | DiscoveRx PathHunter D2 beta-arrestin, luminescence, 90 min; 100% = 57 uM dopamine signal | activation, % (concentration not given with the values) | hit rate 0.084% among 360,000; in the data active = activation above about 40%; inconclusive = about 15% to 40%; inactive = below about 15%; note: compound concentration not given in the record; the text of the record calls up to 30% inactive
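DiscoveRx PathHunter D2 beta-arrestin cells (2,100/well) attached overnight, then compound-stimulated 90 min at 37 C in HBSS/10 mM HEPES/0.1% Tween-20 buffer; beta-galactosidase complementation read by luminescence after 1 h at ambient temperature. Dopamine 57 uM final (EC100) as control.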
TRPML1 blocker – qHTS for Inhibitors of the Human Mucolipin Transient Receptor Potential 1 (TRPML1); Mucolipin-1 (Homo sapiens), Q9GZU1; TRPML1-inducible cells, Ca2+ dye fluorescence, FDSS; hits give low values; inhibition of EC80 agonist-evoked calcium signal; activity change, negative = inhibition, % (test concentration not listed); hit rate 0.02% among 390,000; in the data active means activity change below about -50%; inconclusive means about -30% to -50%; inactive means above about -30%;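 note: stimulus is agonist 54-4 at its EC80 concentration; % is set by controls: 0 for no effect and ±100 for the full control effect; compound concentration not given in the record; the text of the record puts the active cut at -80%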
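TRPML1-DL cells, Tet-induced overnight (~16 h, 37 °C) at 1,500 cells/well, were loaded with Ca8 no-wash dye plus quencher for 45-90 min at room temperature. Compounds were pinned during FDSS kinetic reading; agonist 54-4 at EC80 (4 uM final) then added.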
PINK1 modulator – A Quantitative High throughput Screen to Identify Chemical Modulators of PINK1 Expression. hit rate 0.2% among 410,000. AID 624263, 2012. PINK1 immunofluorescence, high-content cytometry, 24 h. Potency, µM (doses to about 76.6 µM), inactives show at the highest dose activation (PINK1 increase), actives largely listed as activators; active = well fitted activation curve with a large enough effect; inconclusive = small, poorly fitted or top-dose-only effect; inactive = flat fitted curve, though single readings scatter; cell line not stated here;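 note: potency is the fitted concentration of half-maximal effect; % of control where 0% means no effect; nearly all actives have a fitted effect of over 65% in size; a mitochondrial uncoupler was the plate control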
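A stable cell line was treated with compounds at 5 concentrations for 24 hours, with CCCP as control. PINK1 levels and mitochondrial localization were measured by immunofluorescence with mitochondrial, cell and nuclear markers after fixation, read by laser-scanning cytometry.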
Numbers without * were called inactive; ? = inconclusive; nt = no result given; [ ] = remark or other dose.

No.	SMILES	PINK1 modulator	TRPML1 blocker	TRPML1 ag
1	CCCc1cnc(N2CCN(C(=S)NC)CC2)nc1	1.6%	4	-0.1
2	CCCC(=O)NNC(=O)CC(=O)Nc1ccccc1C(=O)O	0.4%	7	0.0
3	O=C(/C=C/c1ccco1)Nc1cccc(-c2nc3ccccc3[nH]2)c1	-0.8%	5	1.8
4	O=C(O)C1=C[C@@H](c2csc3ccccc23)C[C@@H](OCCCCO)O1	0.9%	-5	-0.6
5	COc1ccc(OC)c2sc(N3CCN(C(=O)C(C)(C)C)CC3)nc12	1.2%	-15	0.5
6	O=S(=O)(c1ccc(NCCc2c[nH]c3ccccc23)nc1)N1CCOCC1	2.0%	-5	-0.7
7	COc1ccc([C@H]2CC(=O)C[C@@H](CCn3cc(C)nn3)O2)cc1	0.6%	nt	-0.9
8	Cc1ccc(NC(=O)CCN2C(=O)OC(C)(C)C2(C)O)cc1 (stereo not drawn)	0.4%	-12	-0.2
9	O=C(Nc1ccc(Br)cc1)Nc1nc2c(s1)CCCCCC2	13%	-1	0.2
10	COc1cccc(-c2nc3cc(C)ccc3o2)c1	9.2%	7	1.5
11	COc1ccc(OC)c(NC(=O)Nc2nnc(N3CCC(C)CC3)s2)c1	3.7%	-6	-1.0
12	COc1ccc2c(CC(=O)OCC(=O)Nc3ccc(S(N)(=O)=O)cc3)coc2c1	1.8%	59	0.2
13	Cc1oc2ccc(O)c(CN3CCCCCC3)c2c1C(=O)Nc1cccc(Cl)c1C	0.8%	23	1.5
14	CC1CCc2c(sc(NC(=O)COC(=O)C3CCCO3)c2C#N)C1 (stereo not drawn)	1.9%	-13	0.3
15	O=c1[nH]cnc2c1c(-c1ccccc1)cn2-c1cccc(Cl)c1	-0.1%	-13	4.8

No.	CtBP-E1A blk	D2 ag	Six1-Eya2 inh
1	1	0.5	-1
2	nt	-9.5	5
3	-7	-1.3	-8
4	1	-1.6	0
5	nt	nt	nt
6	-2	0.4	-2
7	-1	nt	1
8	11	-1.3	5
9	nt	nt	nt
10	21	-8.0	46
11	0	-4.8	-3
12	-1	-2.0	0
13	nt	nt	nt
14	15	-2.9	3
15	nt	7.4	-19

Individual results from the list.
For PINK1 modulator, compound 4 is listed with 0.9%
For TRPML1 ag, compound 14 is listed with 0.3
For D2 ag, compound 2 is listed with -9.5

Returning to the listing with the three entries that preceded the break.
No.	SMILES	PINK1 modulator	TRPML1 blocker	TRPML1 ag
13	Cc1oc2ccc(O)c(CN3CCCCCC3)c2c1C(=O)Nc1cccc(Cl)c1C	0.8%	23	1.5
14	CC1CCc2c(sc(NC(=O)COC(=O)C3CCCO3)c2C#N)C1 (stereo not drawn)	1.9%	-13	0.3
15	O=c1[nH]cnc2c1c(-c1ccccc1)cn2-c1cccc(Cl)c1	-0.1%	-13	4.8
16	O=C(N/N=C/c1coc2ccc(Cl)cc2c1=O)c1cc(O)cc(O)c1	1.7%	3	-0.6
17	O=C(Nc1ccccc1F)C1CCCN1S(=O)(=O)c1ccc(Cl)cc1 (stereo not drawn)	-0.1%	-9	0.2
18	Cn1ncc([N+](=O)[O-])c1C(=O)NC1CCCCCC1	1.5%	4	-0.7
19	CCOC(=O)c1c(C)[nH]c(C(=O)NNC(=O)c2ccccc2)c1C	7.2%[38.3 µM]	-3	0.6
20	CCOc1ccc(CCNC(=O)COC(=O)/C=C/c2ccccc2OC)cc1OCC	4.7%	0	2.4
21	CCOCCCNC(=O)c1ccc2c(c1)ncn2-c1ccc(CC)cc1	3.7%	nt	nt
22	O=C(NN1CCOCC1)NC12CC3CC(CC(C3)C1)C2	-0.3%	-7	0.7
23	Fc1cccc(Cl)c1/C=N/n1c(-c2cccnc2)n[nH]c1=S	1.2%	-13	4.7
24	C[C@@H]1CN([C@H](C)CO)S(=O)(=O)c2ccc(-c3cccc(C(=O)N(C)C)c3)cc2O[C@H]1CN(C)C(=O)Nc1ccc(F)cc1	4.2%	3	-0.8
25	Cc1cc(C(=O)OCC(=O)Nc2cccc(S(N)(=O)=O)c2)c2ccccc2n1	0.3%	-3	0.6
26	Cc1nc(Br)c(Br)c(C)c1Br	1.2%	13	-0.6
27	CCCCCC(=O)N1CCN(CCN=CC2=C(O)CC(c3ccco3)CC2=O)CC1 (stereo not drawn)	-0.9%	19	1.7
28	CCn1c(SCC(=O)OC)nc2sc3c(c2c1=O)CCC3	-8.1%[38.3 µM]	0	1.4
29	COc1ccc(NC(=O)C/C(C)=N/NC(=O)c2ccco2)c([N+](=O)[O-])c1	-0.2%	-21	-0.5
30	COc1ccc(OC)c(S(=O)(=O)Nc2ccc(CC(=O)O)cc2)c1	-0.9%[38.3 µM]	0	0.1

No.	CtBP-E1A blk	D2 ag	Six1-Eya2 inh
13	nt	nt	nt
14	15	-2.9	3
15	nt	7.4	-19
16	-15	1.1	-24
17	-15	-3.1	-1
18	3	0.7	5
19	-5	-0.2	1
20	-3	-7.2	-11
21	0	0.9	-15
22	0	-3.5	7
23	-2	-3.0	2
24	4	-1.2	-1
25	-2	0.7	8
26	nt	-3.4	8
27	-1	-1.7	-3
28	-8	2.6	-9
29	-4	0.2	-7
30	-3	-2.0	4

Additional structures
No.	SMILES	PINK1 modulator	TRPML1 blocker	TRPML1 ag
31	COc1cccc(NC(=O)N[C@@H](Cc2ccccc2)C(=O)O)c1	0.6%	-1	-0.7
32	S=c1[nH]nc(COc2ccccc2)n1/N=C/C=C/c1ccccc1	-2.3%	44	0.4
33	CN(C)S(=O)(=O)c1cccc(C(=O)c2nccn2C)c1	0.0%	2	0.1
34	O=S(=O)(Nc1ccc(-c2csc(-c3ccccc3)n2)cc1)c1ccc(F)cc1	-6.0%	5	0.2
35	CCOC(=O)c1nnn(-c2nonc2N)c1COc1c(C=O)cccc1OC	0.4%	19	3.5
36	CCN(C(=O)COC(=O)/C(C#N)=C/c1ccc(OC)cc1)C1CCS(=O)(=O)C1 (stereo not drawn)	-1.4%	-2	0.0
37	Cc1cccc(NC(=O)/C=C/c2ccc([N+](=O)[O-])s2)c1	-0.7%	-7	-0.4
38	COc1ccc2[nH]cc(CCn3ccc(O)c(C/C=C/c4ccccc4)c3=O)c2c1	0.7%	-18	-0.9
39	Cc1ccc([C@@H]2C[C@H]3[C@@H](CN2S(=O)(=O)c2ccc(C)cc2)C(=O)C[C@@H](c2ccc(Cl)cc2)N3S(=O)(=O)c2ccc(C)cc2)cc1	4.1%	-5	3.2
40	C/C(N)=C(/C#N)C(=O)COC(=O)c1cccc(O)c1	-0.4%	6	-0.4
41	CCC(C)Nc1nc(OC)nc(N(C)C#N)n1 (stereo not drawn)	0.1%	3	1.2
42	CCN1CCN(CC(=O)c2ccc(OC)cc2)CC1	4.1%	-2	-0.7
43	CCOc1cccc(-c2nc3cc(C)ccc3o2)c1	2.1%	17	0.5
44	CCOc1ccc(OCc2ccc(C(=O)NN)o2)cc1	0.8%	2	0.8
45	CCC(CC)C(=O)NN(C(=O)c1ccncc1)C1CC(=O)N(c2ccccc2)C1=O (stereo not drawn)	0.3%	-3	-0.9

No.	CtBP-E1A blk	D2 ag	Six1-Eya2 inh
31	0	-0.7	13
32	-2	1.4	-9
33	3	0.8	7
34	-1	5.5	-8
35	2	-0.7	4
36	10	-3.0	8
37	11	2.2	-5
38	22	2.9	?
39	-6	-8.6	-9
40	4	0.2	-3
41	2	-3.4	2
42	5	-3.0	1
43	3	-0.2	12
44	nt	-2.1	-3
45	7	-2.4	-5

7 entries from above, arranged by the number in Six1-Eya2 inh, ascending.
item | compound | PINK1 modulator | TRPML1 blocker | CtBP-E1A blk | D2 ag | Six1-Eya2 inh
39 | Cc1ccc([C@@H]2C[C@H]3[C@@H](CN2S(=O)(=O)c2ccc(C)cc2)C(=O)C[C@@H](c2ccc(Cl)cc2)N3S(=O)(=O)c2ccc(C)cc2)cc1 | 4.1% | -5 | -6 | -8.6 | -9
45 | CCC(CC)C(=O)NN(C(=O)c1ccncc1)C1CC(=O)N(c2ccccc2)C1=O (stereo not drawn) | 0.3% | -3 | 7 | -2.4 | -5
41 | CCC(C)Nc1nc(OC)nc(N(C)C#N)n1 (stereo not drawn) | 0.1% | 3 | 2 | -3.4 | 2
35 | CCOC(=O)c1nnn(-c2nonc2N)c1COc1c(C=O)cccc1OC | 0.4% | 19 | 2 | -0.7 | 4
33 | CN(C)S(=O)(=O)c1cccc(C(=O)c2nccn2C)c1 | 0.0% | 2 | 3 | 0.8 | 7
36 | CCN(C(=O)COC(=O)/C(C#N)=C/c1ccc(OC)cc1)C1CCS(=O)(=O)C1 (stereo not drawn) | -1.4% | -2 | 10 | -3.0 | 8
43 | CCOc1cccc(-c2nc3cc(C)ccc3o2)c1 | 2.1% | 17 | 3 | -0.2 | 12

The listing continues:
No.	SMILES	PINK1 modulator	TRPML1 blocker	TRPML1 ag
46	COc1ccc(OC)c(C(=O)CSc2nnc(-c3cccs3)n2C)c1	0.9%	0	0.6
47	COc1cccc(-c2nc(CS(=O)CC(=O)NCCc3ccccc3)c(C)o2)c1 (stereo not drawn)	0.9%	-8	-0.4
48	CCOC(=O)N1CCN(C(=O)c2ccc(SC)cc2OC)CC1	3.8%	35	1.0
49	CCOC(=O)c1c(C)nc2c3ccccc3ccn12	-0.9%	-11	0.9
50	CC(C)COC(=O)/C(C#N)=C/c1cn(Cc2ccccc2)c2ccccc12	2.6%	1	1.1
51	CCN(CC)P(=O)(C(NC(=O)OC)C(F)(F)C(F)(F)C(F)(F)C(F)F)N(CC)CC (stereo not drawn)	nt	-10	0.9
52	O=C(Nc1ccc(F)cc1)N1CCN(C/C=C/c2ccccc2)CC1	0.6%	9	0.2
53	CCn1c(NC(C)=O)c(-c2ccccc2Cl)c(=O)c2ccccc21	0.3%	-10	0.0
54	COc1ccc(-c2nc(N)nc(C(F)(F)F)c2-c2csc(C)n2)c(O)c1	0.6%	-29	1.2
55	CCCC[n+]1c(-c2ccc(Cl)cc2Cl)csc1Nc1ccccc1	7.7%	10	-0.1
56	CCOCCC(=O)Nc1ccc2c(c1)c(=O)n(C)n2-c1ccccc1F	1.5%	nt	-0.2
57	COc1ccc(N2CC(C(=O)Nc3nnc(SCC(=O)Nc4ccc(NC(C)=O)cc4)s3)CC2=O)cc1 (stereo not drawn)	-0.8%	1	0.2
58	Cc1ccc(NC(=O)CSc2nnc(CNC(=O)c3ccco3)o2)cc1	0.2%	-4	3.5

No.	CtBP-E1A blk	D2 ag	Six1-Eya2 inh
46	4	-1.0	7
47	nt	1.9	-5
48	nt	-2.8	0
49	-22	-0.7	-15
50	5	-2.8	11
51	11	-0.8	5
52	-8	-2.4	-9
53	21	-4.0	21
54	0	-6.2	12
55	-21	-2.3	-21
56	2	-2.8	-2
57	2	-3.2	3
58	0	-1.5	0
